HSV replic up: enhancers of HSV replication in host cells, fold increase, host cell viability; maximum fold increase; hit rate 0.005% among 220,000; HSV replication augmentation in cells;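 active means peak rise of 1.5-fold or more in the series; tested in PC3 cells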;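 further: first round at 10 µM; read as green reporter fluorescence; hits show the peak of a series up to 25 µM; 1 = signal of infected wells without compound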
HSV replic up primary fold: second read-out of HSV replic up, no call of its own (marks repeat the call); fold increase; compound at 10 µM; measured here: primary screen fold increase 10 uM; tested in PC3 cells;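 GFP signal in the first replicate; 1 = infected wells without compound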
An asterisk follows results filed as active; i = inactive.

SMILES	HSV replic up	HSV replic up primary fold
C/C=C1\COC(C(=O)NCc2cccc(OC)c2OC)(C(F)(F)F)C=C1C=C1CCCCC1 (stereo unspecified)	i	1
CN(C)CCN1C(=O)C(=O)/C(=C(/O)c2ccc(S(=O)(=O)N3CCOCC3)cc2)C1c1ccccc1 (stereo unspecified)	i	0.99
COc1ccc2[nH]c3c(c2c1)CCNC3=O	i	0.97
O=C(NCc1cccnc1)[C@@H]1CC=C[C@@H]2CCN(Cc3ccccc3)C(=O)[C@@H]21	i	0.93
COc1ccc(C(=O)c2c(-c3ccsc3)oc3ccc(-c4ccc(OC)cc4)cc23)cc1	i	1.1
C#CCOCCOCCOCCNc1nc(N2CCN(C(=O)C([C@@H](C)CC)n3cc(C(N)COC(=O)C(F)(F)F)nn3)CC2)nc(N2CCN(C(=O)[C@H](CCC(=O)O)n3cc(C(N)CC(C)C)nn3)CC2)n1 (stereo partly specified)	i	0.66
Cc1ccc(C2=NOC(C)(c3nnc(-c4cccc(Cl)c4)o3)C2)cc1 (stereo unspecified)	i	0.8
Cc1nc(C(=O)Nc2cc(F)cc(Cl)c2)sc1C1(C)CC(c2ccccc2)=NO1 (stereo unspecified)	i	0.65
COc1ccc(C2=CC3=CC(=O)C(C)(O)C(=O)C3=CO2)cc1 (stereo unspecified)	i	1
CCC1(CC)C(=O)C2=C3C1[C@H](C(=O)OC)CC(C(=O)OC)C[C@H]3[C@H]1C(=O)N(c3ccccc3)C(=O)[C@H]1[C@H]2C (stereo partly specified)	i	0.94
C=CCNC(=O)c1ccc2c3n(nc2c1)-c1ccc(Cl)cc1CO3	i	1
C[C@H]1CCC[C@]2(O[C@@H](CCO)C[C@@H](O)[C@@H]2O)O1	i	0.96
NCCCC[C@H]1CN=C(N)N1CCc1cccc2ccccc12	i	0.86
COc1c2ccoc2cc2oc(C)cc(=O)c12	i	0.85
CCO[C@@H]1OC(C(N)=O)=C[C@H](C(C)(C)C)[C@H]1CCCO	i	0.88
CCCC[C@@H]1CCCO[C@@](C(=O)NCc2cc(C)n(C)n2)(C(F)(F)F)C1	i	1
CC(C)=CCOc1ccc([C@@H]2COc3c(ccc4c3C=CC(C)(C)O4)C2)c(O)c1	i	1
OCCCn1c(C(CO)Nc2nc(-c3ccc(Cl)cc3)cs2)nc2ccccc21 (stereo unspecified)	i	0.79
CCOC(=O)C1=C(COc2ccccc2)NC(=O)NC1c1ccc2ccccc2c1 (stereo unspecified)	i	0.76
O=C(Nc1ccccc1)[C@@H]1CC=C[C@@H]2CCN(Cc3ccc(Cl)c(Cl)c3)C(=O)[C@@H]21	i	0.97

5 of the entries above in order of the HSV replic up primary fold value, largest number first.
mol | HSV replic up primary fold
COc1ccc(C(=O)c2c(-c3ccsc3)oc3ccc(-c4ccc(OC)cc4)cc23)cc1 | 1.1
CN(C)CCN1C(=O)C(=O)/C(=C(/O)c2ccc(S(=O)(=O)N3CCOCC3)cc2)C1c1ccccc1 (stereo unspecified) | 0.99
C[C@H]1CCC[C@]2(O[C@@H](CCO)C[C@@H](O)[C@@H]2O)O1 | 0.96
NCCCC[C@H]1CN=C(N)N1CCc1cccc2ccccc12 | 0.86
Cc1nc(C(=O)Nc2cc(F)cc(Cl)c2)sc1C1(C)CC(c2ccccc2)=NO1 (stereo unspecified) | 0.65

(listing goes on)
SMILES	HSV replic up	HSV replic up primary fold
CC[N+](CC)(CC)CC(=O)Nc1c(C)cccc1C	i	0.56
COc1ccccc1Nc1nc(N2CCOCC2)nc(N2CCOCC2)n1	i	0.81
COC(=O)C1=C(C(=O)OC)[C@@H]2N(Cc3ccccc3)c3ccccc3[C@@]23C[C@@H](C(=O)OC)N(C(=O)NC(C)(C)C)C3=N1	i	0.84
O=C1[C@H]2[C@H](C=CC[C@H]2C(=O)N2CCOCC2)CCN1Cc1ccccc1	i	0.78
O=C(N[C@@H](Cc1ccc(O)cc1)C(=O)O)c1ccncc1	i	0.66
COC(=O)C[C@H]1c2cc(F)ccc2S(=O)(=O)N1c1ccc(N(C)C)cc1	i	1.1
CCOC(=O)C[C@H]1c2cc(F)ccc2S(=O)(=O)N1Cc1ccc(OC)cc1	i	1
CCOC(=O)[C@H](CCc1ccccc1)N[C@@H](C)C(=O)N1[C@H](C(=O)O)C[C@@H]2CCC[C@@H]21	i	0.75
O=C(c1ccc(C(F)(F)F)cc1)N1CCC(=O)N(C(CO)Cc2ccccc2)CC1 (stereo unspecified)	i	0.77
O=C(O)c1cc([N+](=O)[O-])ccc1NCCCc1ccccc1	i	0.77
C/C(=C\C1CCCCC1)C(NC(=O)c1ccc(C(F)(F)F)cc1)c1ccc(-c2ccccc2)cc1 (stereo unspecified)	i	0.94
C#Cc1ccc([C@H]2C=C(C(=O)O)O[C@@H](OCCCCO)C2)cc1	i	0.91
C=CC1=C2C=C(C3CC3)N(C3CC3)C=C2C(=O)C(C)(OC(=O)c2ccco2)C1=O (stereo unspecified)	i	1.1
CON(C)c1nc(C2CCCCC2)c2cc(C)ccc2n1	i	0.91
CCCCCSc1nc2c(c(=O)[nH]c(=O)n2C)n1CCc1ccccc1	i	0.85
CC1(C)c2[nH]c3ccccc3c2C[C@@H]2C(=O)N(c3cc(F)ccc3F)C(=O)N21	i	0.84
CCOC(=O)/C=C/c1ccccc1S(=O)(=O)NC(C)(C)C	i	0.83
CCN(CC)CCCN1C=C2C(=O)C(C)(OC(=O)CCC(=O)OC)C(=O)C(Br)=C2C=C1c1ccc(OC)cc1 (stereo unspecified)	i	1.3
OCCOCCn1c(CCNc2nc(-c3ccc(F)cc3)cs2)nc2cc(C(F)(F)F)ccc21	i	0.81
C#C[C@]1(O)CC[C@H]2[C@@H]3[C@H](C)CC4=C(CCC(=O)C4)[C@H]3CC[C@@]21C	i	0.87
COC(=O)C1=C(C)N(CCCC(=O)O)C(=O)NC1c1ccccc1OS(=O)(=O)c1ccccc1[N+](=O)[O-] (stereo unspecified)	i	0.71
C=CCOC(=O)C1=C[C@H](C2CCCCC2)C[C@H](OCc2ccc(CO)cc2)O1	i	0.89
[O-][N+]1=C2CCC/C(=N\O)C2=NC12CCCCC2	i	1.1
CCCc1nc2c(s1)CCc1onc(-c3ccc(OC)cc3)c1-2	i	0.76
CCCCC1=CC2=CC(=O)C(C)(O)C(=O)C2=CO1 (stereo unspecified)	i	0.99
COc1ncccc1-c1nnn(-c2ccccc2Br)n1	i	0.89
CCCCC1=CC2=CC(=O)C(C)(OC(=O)c3ccco3)C(=O)C2=CO1 (stereo unspecified)	i	0.95
CCn1nc(Cc2cccc3ccccc23)c(C#N)c1N	i	0.92
O=C(O)Cn1cc(F)c(=O)[nH]c1=O	i	1
CC1(c2nnc(Cc3ccccc3)o2)CC(c2ccc(F)cc2)=NO1 (stereo unspecified)	i	0.94
COc1cccc(N2[C@@H](CC(C)=O)c3ccccc3S2(=O)=O)c1	i	0.8
COC(C[C@H](O)CC(=O)[C@@H](C)OCc1ccccc1)OC	i	0.76
CCOC(=O)c1ccc(NC(=O)c2c(N)n(Cc3ccccc3)c(=O)[nH]c2=O)cc1	i	0.63
CC[C@H](C)/C=C/C1=CC2=C(Cl)C(=O)[C@@]3(C)OC(=O)C(C(=O)[C@H](C)[C@@H](C)O)=C3C2=CO1	i	1.1
COC(=O)C1=C2c3[nH]c4ccccc4c3CCN2C(=O)CC1	i	1
COC(=O)C[C@H]1c2ccccc2S(=O)(=O)N1c1cccc(OC)c1	i	0.82
OCCNc1nc(Nc2ccc(Cl)cc2)nc(N2CCCC2)n1	i	0.61
COCOc1cc(O)c(C(=O)/C=C/c2ccccc2)c(OCOC)c1	i	0.75
COc1ccc(CNC(=O)C2(CC3CC(c4ccccc4)=NO3)CCN(C(=O)Cc3ccc(F)cc3)CC2)cc1 (stereo unspecified)	i	0.94
CCN1C(=O)N[C@@H](CCc2ccccc2)[C@H](C(C)=O)[C@H]1C	i	1.1

Record cards (already shown):
[O-][N+]1=C2CCC/C(=N\O)C2=NC12CCCCC2 reads HSV replic up: i; HSV replic up primary fold: 1.1
OCCNc1nc(Nc2ccc(Cl)cc2)nc(N2CCCC2)n1 reads HSV replic up: i; HSV replic up primary fold: 0.61
CCCCC1=CC2=CC(=O)C(C)(OC(=O)c3ccco3)C(=O)C2=CO1 (stereo unspecified) reads HSV replic up: i; HSV replic up primary fold: 0.95

Individual results from the results shown.
Under HSV replic up primary fold, CC[C@H](C)/C=C/C1=CC2=C(Cl)C(=O)[C@@]3(C)OC(=O)C(C(=O)[C@H](C)[C@@H](C)O)=C3C2=CO1 is entered as 1.1
Under HSV replic up primary fold, COCOc1cc(O)c(C(=O)/C=C/c2ccccc2)c(OCOC)c1 is entered as 0.75
Under HSV replic up primary fold, COC(=O)C1=C(C)N(CCCC(=O)O)C(=O)NC1c1ccccc1OS(=O)(=O)c1ccccc1[N+](=O)[O-] (stereo unspecified) is entered as 0.71
Under HSV replic up primary fold, CCOC(=O)c1ccc(NC(=O)c2c(N)n(Cc3ccccc3)c(=O)[nH]c2=O)cc1 is entered as 0.63

(more compounds)
SMILES	HSV replic up	HSV replic up primary fold
COc1ccc(C2=CC(=O)CCC2)cc1	i	0.97
COc1c(F)cc2[nH]c3c(c2c1F)CCNC3=O	i	0.72
COC(C[C@H]1O[C@H]1C(=O)[C@H](C)OCc1ccccc1)OC	i	0.87
Cc1ccc(C(C)C)c(O)c1	i	0.95
Cc1nccn1-c1c2c(c(C#N)c3nc4ccccc4n13)CCC2	i	0.95
CCOC(=O)C1=C(CCc2ccccc2)NC(=O)NC1c1ccc(C#N)cc1 (stereo unspecified)	i	0.73
O=C1C=C(N2CCOCC2)CO1	i	0.99
CCCC[C@@H]1CCCO[C@@](C(=O)NCc2ccccn2)(C(F)(F)F)C1	i	1.1
CCOC(=O)CN1C(=O)N[C@@H](c2cccc(C(F)(F)F)c2)C(C(C)=O)=C1C	i	0.92
OCCc1ccccc1	i	0.84
COC(=O)c1ccc2nc(C3CCCCC3)c3c(c2c1)CCC3	i	0.88
CCOC(=O)CN1C(=O)N[C@@H](c2ccccc2)[C@H](C(C)=O)[C@H]1C	i	0.85
COc1cccc(N2[C@@H](CC(C)=O)c3cc(C(F)(F)F)ccc3S2(=O)=O)c1	i	0.78
CCCCCN=C(N)N/N=C/c1c[nH]c2ccc(OC)cc12	i	0.41
CCOC(=O)/C=C/c1ccc2c(c1)S(=O)(=O)N(c1cccc(OC)c1)[C@H]2CC(=O)OCC	i	1
C=CCNC(=O)c1onc(CSc2ccc(F)c(F)c2)c1C(=O)NCC=C	i	0.93
CCO[C@H]1OC(C(=O)NCc2nc3ccccc3[nH]2)=C[C@@H](c2ccc3c(c2)OCO3)[C@@H]1CCCO	i	0.85
CCOC(=O)c1cc(-c2ccccc2)nn1CC1CC(c2cccc([N+](=O)[O-])c2)=NO1 (stereo unspecified)	i	1
Cc1ccc(Cn2c(C(C)Nc3nc(-c4ccc(F)cc4)cs3)nc3cc(Cl)c(Cl)cc32)cc1 (stereo unspecified)	i	0.92
OCC1OC(n2cnc3c(NCCc4ccccc4)ncnc32)C(O)C1O (stereo unspecified)	i	1
O=C(NCc1ccccc1)C1=C[C@@H](c2ccc3c(c2)OCO3)C[C@@H](OCCCCO)O1	i	0.67
CCN1C(=O)N(C)[C@@H](c2ccccc2)C(C(C)=O)=C1C	i	0.75
COc1cc(/C=N/Nc2nc3ccccc3s2)cc([N+](=O)[O-])c1O	i	1.2
O=C(NCCN1C(=O)C2C3C=CC(C3)C2C1=O)Nc1ccccn1 (stereo unspecified)	i	0.77
COC(=O)C[C@H]1c2cc(C(F)(F)F)ccc2S(=O)(=O)N1Cc1ccccc1	i	1.1
COc1ccc([C@H]2/C=C\CN(C(=O)CC(C)(C)C)[C@@H](C)C(=O)N2Cc2ccc(F)cc2)cc1	i	0.79
COc1ccccc1C1=NOC(C)(c2nnc(-c3cccc(Cl)c3)o2)C1 (stereo unspecified)	i	0.82
C=C1CCN([C@@H](Cc2ccccc2)C(=O)NCc2ccc(Cl)cc2)S(=O)(=O)c2ccccc21	i	0.93
Cn1cccc1Cc1nnc(SCC(=O)NCc2ccc(F)cc2)n1-c1ccc(F)cc1	i	0.88
CC1(C)CCC23CC[C@]4(C)C(OC2=O)(C3C1)[C@H]1O[C@H]1C1[C@@]2(C)CC[C@@H](O)C(C)(C)C2CC[C@]14C (stereo partly specified)	i	0.69
CCCCN1CC[C@H]2C=CC[C@@H](C(=O)Nc3ccccc3)[C@H]2C1=O	i	0.91
CC(=O)C[C@H]1c2cc(C(F)(F)F)ccc2S(=O)(=O)N1c1ccc(N(C)C)cc1	i	0.95
COC(=O)C[C@H]1c2cc(F)cc(F)c2S(=O)(=O)N1C1CCN(Cc2ccccc2)CC1	i	0.92
CCCC[C@@H]1CCCO[C@@](C(=O)NCc2ccc(C)o2)(C(F)(F)F)C1	i	0.87
CCOC(=O)C[C@H]1c2ccc(C(F)(F)F)cc2S(=O)(=O)N1Cc1ccccc1	i	0.91
O[C@@H]([C@H](O)[C@H](O)CBr)[C@H](O)CBr	i	0.91
Cc1cccc(-n2cnc3c(c2=O)c2nc4ccccc4nc2n3Cc2ccco2)c1	i	1
O=C1CC2(CCCCCC2)Oc2ccc(Cl)cc21	i	0.85
C#CCOCCOCCOCCNc1nc(N2CCN(C(=O)C([C@@H](C)CC)n3cc(C(N)COC(=O)C(F)(F)F)nn3)CC2)nc(N2CCN(C(=O)[C@H](Cc3cc4ccccc4[nH]3)n3cc(C(N)CO)nn3)CC2)n1 (stereo partly specified)	i	0.82
Cc1nnc(SCC(=O)c2c(N)n(C)c(=O)n(C)c2=O)[nH]c1=O	i	0.83
COc1ccc(C2=NOC(c3nnc(-c4ccccc4)o3)C2)cc1 (stereo unspecified)	i	0.59

These rows are one share of the data. The share of hits here may be higher or lower than overall.
